Screening results deposited in PubChem by National Center for Advancing Translational Sciences (NCATS).
AID923 – qHTS Assay for Allosteric/Competitive Inhibitors of Caspase-1: Spectroscopic Profiling in AFC Spectral Region | compound fluorescence, AFC spectral region (405/520 nm); almost no hit is shown here | Potency, µM (titrated, usually from 57.5 µM), for the others: top-dose fluorescence increase, hits mostly activators | hit rate 1.1% among 75,000; active = well fitted activation curve with a large enough effect;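 note: 0% is about no effect; scaled to a free AFC standard on each plate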
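Baseline compound fluorescence (AFC region, 405 nm ex/520 nm em) taken from the intercept of kinetic reads with 50 nM caspase-1 and 5 uM Ac-WEHD-AFC; normalized to an on-plate AFC standard curve; compounds titrated up to 57 uM.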
The depositor's hits bear a star; & = joins results of further samples; [ ] = dose if it differs, or a comment. Potency is the fitted concentration of half-maximal effect. A portion of the library (hit frequency here may not be typical).

| cpd | SMILES | AID923 |
| --- | --- | --- |
| 1 | CC(C)OC(=O)CCC(=O)Nc1nc2ccccc2s1 | 1.4% |
| 2 | CCC(C(=O)NC(C)CCc1ccccc1)n1nc(C)n2c(cc3occc32)c1=O (stereo not drawn) | -0.1% |
| 3 | COc1cc(O)cc(OC)c1OC | 0.8% |
| 4 | CCOC(=O)c1c(NC(=O)c2ccco2)sc(C(=O)N2CCCC2)c1C | -1.9% |
| 5 | COc1ccnc(CS(=O)c2nc3ccc(OC(F)F)cc3[nH]2)c1OC (stereo not drawn) | -0.4% |
| 6 | COc1ccc(-c2cc(C(F)(F)F)n3ncc(C(=O)NCC4CCCO4)c3n2)cc1OC (stereo not drawn) | 3.7% |
| 7 | COc1c(O)c(O)cc2c1oc1c3cc(C)ccc3oc(=O)c21 | 2.9% |
| 8 | C#CCCCCCCCCCCCC(O)CC(O)COC(C)=O (stereo not drawn) | -5.3% |
| 9 | COc1ccc2c(c1)OCC(Cc1ccc(OC)c(OC(C)=O)c1)C2=O (stereo not drawn) | -1.3% |
| 10 | NC(=O)NCC(N)C(=O)O (stereo not drawn) | 0.9% |
| 11 | CN(C)/C=N/c1cc(=O)[nH]c(=O)n1Cc1ccccc1 | 2.2% |
| 12 | CN(CC(=O)Nc1ccc(Cl)cc1)S(=O)(=O)c1cccc2cccnc12 | 1.5% |
| 13 | CCOc1ccccc1Nc1ncnc2c1cnn2-c1ccccc1 | -6.2% |
| 14 | CC(=O)OC1CCC2(C)C3CCC4(C)C(CC5CCCCC54C(C)=O)C3CC(=O)[C@@]2(O)C1 (stereo partly drawn) | -0.8% |
| 15 | CC(=O)[C@]1(O)CCC2C3CCC4=CC(=O)CC[C@@]4(C)C3CC[C@]21C (stereo partly drawn) | 0.2% |
| 16 | N[C@@H]1C(O)OC(CO)C(O)C1O (stereo partly drawn) | -3.8% |
| 17 | O=C(O)CCc1ccc(-c2ccc(Cl)cc2)n1CC(=O)O | 0.9% |
| 18 | COc1ccc(-c2cc(=O)c3c(OC)c(OC)c(OC)c(OC)c3o2)cc1 | -1.7% |
| 19 | CCC1=C(OC(=O)N(CC)CC)N2C(=O)OC(=NCC(=O)OC)[C@]2(Cc2ccccc2)[C@H]2C1=CC[C@H]1C(=O)N(C)C(=O)[C@H]12 | 1.6% |
| 20 | COCCNC(=O)CN(c1ccc(C)cc1)S(=O)(=O)c1ccc(SC)cc1 | 3.6% |

Of the compounds above, 3 contain a furan ring, fused or not:
| cpd | SMILES | AID923 |
| --- | --- | --- |
| 2 | CCC(C(=O)NC(C)CCc1ccccc1)n1nc(C)n2c(cc3occc32)c1=O (stereo not drawn) | -0.1% |
| 4 | CCOC(=O)c1c(NC(=O)c2ccco2)sc(C(=O)N2CCCC2)c1C | -1.9% |
| 7 | COc1c(O)c(O)cc2c1oc1c3cc(C)ccc3oc(=O)c21 | 2.9% |

Next entries:
| cpd | SMILES | AID923 |
| --- | --- | --- |
| 21 | CC(C)Cn1c(N)c(C(=O)COC(=O)c2cc(C(F)(F)F)nc3ccccc23)c(=O)n(C)c1=O | 1.6% |
| 22 | O=C(O)CCCCC1SCC2NC(=O)NC21 (stereo not drawn) | -3.6% |
| 23 | CO/N=C(/C(=O)NC1C(=O)N2C(C(=O)O)=C(CSc3nc(=O)c(O)nn3C)CSC12)c1csc(N)n1 (stereo not drawn) | -1.8%&1.4% |
| 24 | CCOc1cccc(C(=O)c2ccc(O)c(O)c2O)c1 | -1.4% |
| 25 | COc1ccc(OC)c(C(O)CNC(=O)CN)c1 (stereo not drawn) | -0.3% |
| 26 | CCC1=C(OC(=O)N(CC)CC)N2C(=O)OC(=NCCOC)[C@]2(C)[C@H]2C1=CC[C@H]1C(=O)N(CC(=O)OC)C(=O)[C@H]12 | 1.4% |
| 27 | COC(=O)[C@@H]1C[C@@]2(O)[C@@H](O)[C@@H](O)[C@@H](O)C[C@H]2N1CC1CCCCC1 | 1.8% |
| 28 | CC(NC(=O)c1cc2sccc2n1C)c1ccc2c(c1)OCCO2 (stereo not drawn) | -0.8% |
| 29 | CC1C(=O)OC2CC34C5CC(C(C)(C)C)C36C(OC(=O)C6O)OC4(C(=O)O5)C21O (stereo not drawn) | -0.4% |
| 30 | COc1ccc(-c2cc(=O)c3c(O)cc(O[C@@H]4OC(COC5OC(C)C(O)C(O)[C@@H]5O)C(O)C(O)C4O)cc3o2)cc1 (stereo partly drawn) | -1.9% |
| 31 | COC(=O)[C@@H]1C[C@H]2CC[C@H](O)C[C@H]2N1Cc1ccccc1OC(=O)c1cccs1 | 0.6% |
| 32 | CN(C(=O)COc1cc(=O)n(C)c2ccccc12)c1ccc(Br)cc1 | -2.4% |
| 33 | CCC(C)NC(=O)c1c(-c2cc(Cl)c(OC)c(Cl)c2)noc1C (stereo not drawn) | -0.5% |
| 34 | COc1ccccc1C(=O)N(Cc1nc(-c2ccc(Cl)cc2)no1)C(C)C | -2.3% |
| 35 | Cn1c(N)c(C(=O)COC(=O)c2cc(C(F)(F)F)nc3ccccc23)c(=O)n(Cc2ccccc2)c1=O | 2.1% |
| 36 | COc1ccc2c3c1OC1CC(O)C=C[C@@]31CCN(C)C2 (stereo partly drawn) | -3.4% |
| 37 | Nc1nc2nc(Cl)[nH]c2c(=O)[nH]1 | -0.3% |
| 38 | Cc1noc(C(=O)N2CCN(c3ccc(F)cc3)CC2)c1Cl | -2.4% |
| 39 | CCOC(=O)[C@H](CCc1ccccc1)N[C@@H](C)C(=O)N1[C@H](C(=O)O)C[C@H]2CCCC[C@@H]21 | -1.1% |
| 40 | CC1O[C@@H](Oc2c(-c3ccc(O)c(O)c3)oc3cc(O)cc(O)c3c2=O)C(O)C(O)C1O (stereo partly drawn) | -1.0% |

Not a retest: four of the compounds above.
| cpd | SMILES | AID923 |
| --- | --- | --- |
| 21 | CC(C)Cn1c(N)c(C(=O)COC(=O)c2cc(C(F)(F)F)nc3ccccc23)c(=O)n(C)c1=O | 1.6% |
| 22 | O=C(O)CCCCC1SCC2NC(=O)NC21 (stereo not drawn) | -3.6% |
| 23 | CO/N=C(/C(=O)NC1C(=O)N2C(C(=O)O)=C(CSc3nc(=O)c(O)nn3C)CSC12)c1csc(N)n1 (stereo not drawn) | -1.8%&1.4% |
| 24 | CCOc1cccc(C(=O)c2ccc(O)c(O)c2O)c1 | -1.4% |

Next structures:
41. COC(=O)NC(/C=C/c1ccccc1)[C@]1(C(C)=O)CCCC1=O (stereo partly drawn)
- AID923: -0.9%[11.5 µM]
42. O=C(NCC1CCCO1)C1CCC(N2C(=O)c3ccccc3C2=O)CC1 (stereo not drawn)
- AID923: -0.9%
43. CC(=O)OCC(=O)[C@]1(O)C(C)CC2C3CCC4=CC(=O)C=C[C@@]4(C)[C@]3(F)C(O)C[C@@]21C (stereo partly drawn)
- AID923: -1.7%
44. CCC1=C2CC[C@H]3C(=O)N(C)C(=O)[C@H]3[C@H]2[C@@]2(C)C(=NCC(=O)OC)OC(=O)N2C1=O
- AID923: 1.9%
45. CCOc1ccc(C(=O)c2nc3c(n2O)CCCC3)cc1
- AID923: 0.9%
46. CN(CCOc1ccc(CC2SC(=O)NC2=O)cc1)c1ccccn1 (stereo not drawn)
- AID923: -1.2%
47. O=C(CCS(=O)NCc1ccccc1)NCc1ccccc1 (stereo not drawn)
- AID923: 2.1%
48. CC1COC2=C1C(=O)C(=O)c1c2ccc2c1CCCC2(C)C (stereo not drawn)
- AID923: 6.3%
49. COc1ccc(-c2coc3cc(OC(C)=O)cc(OC(C)=O)c3c2=O)cc1
- AID923: -1.6%
50. CSC(N)=NCCCC(N)C(=O)O (stereo not drawn)
- AID923: 0.1%
51. CC1CC[C@@]23CCC4(C)[C@@]5(C)CCC6C(C)(C)C(O)CC[C@@]6(C)C5C=C[C@@]4(OC2=O)C3C1C (stereo partly drawn)
- AID923: -2.5%
52. CNC(=O)[C@]1(C)C[C@H]1[C@H](NC(=O)[C@]1(C)C[C@H]1[C@H](NC(=O)OCc1ccccc1)c1ccccc1)c1ccccc1
- AID923: -1.3%
53. Cc1ncc(CO)c(C=O)c1O
- AID923: -2.1%
54. CCCc1nc2c(C)cc(-c3nc4ccccc4n3C)cc2n1Cc1ccc(-c2ccccc2C(=O)O)cc1
- AID923: 1.7%
55. CC1(C)CC(=O)C2=C(C1)OC(N)=C(C#N)C2c1ccccc1 (stereo not drawn)
- AID923: 1.1%

56. Cn1ccnc1C(O)c1cc(C(C)(C)C)c(O)c(C(C)(C)C)c1 (stereo not drawn)
- AID923: 2.2%
57. Cc1cc(N2C(=O)C3CC=CCC3C2=O)cc(C)c1Br (stereo not drawn)
- AID923: -0.3%
58. O=S(=O)(c1cccc2ccccc12)N1CCSC1
- AID923: 1.7%
59. COc1ccc(Cc2nnc(NC(=O)c3cccs3)s2)cc1
- AID923: 0.9%
60. COc1cc(/C=C/C(=O)O)cc(OC)c1OC
- AID923: -1.8%
61. CC(=O)N1CCCC1C(=O)O (stereo not drawn)
- AID923: -1.6%
62. O=c1[nH]c(=O)n([C@@H]2O[C@H](CO)[C@@H](O)[C@H]2O)cc1F
- AID923: -1.0%
63. O=c1cc(-c2ccccc2O)oc2cc(O)ccc12
- AID923: 6.0%
64. COc1ccccc1OCC(O)CO (stereo not drawn)
- AID923: -2.5%
65. OC(CN(c1ccccc1)c1ccccc1)Cn1cnc2ccccc21 (stereo not drawn)
- AID923: 2.3%
66. Nc1ncnc2c1ncn2C1CC(O)C(CO)O1 (stereo not drawn)
- AID923: 0.0%&-1.1%
67. C=C1C2CC[C@@]3(C)C(c4ccoc4)OC(=O)C[C@@]13OC1CC(=O)C(C)(C)C(C(O)C(=O)OC)[C@]12C (stereo partly drawn)
- AID923: -0.9%
68. O=C(CC(=O)c1ccccc1O)c1cccc(F)c1
- AID923: 0.4%
69. CC(C)(C)CC(C)(C)c1ccc(O)c(Cc2ccc(Cl)cc2Cl)c1
- AID923: 8.0%
70. C[C@@H](C(=O)Nc1ccc2ccccc2c1)[C@H]1C[C@]1(C)[C@H](NC(=O)c1cccnc1)c1ccccc1
- AID923: -3.4%

Random excerpt: 4 compounds from above, in no set order.
70. C[C@@H](C(=O)Nc1ccc2ccccc2c1)[C@H]1C[C@]1(C)[C@H](NC(=O)c1cccnc1)c1ccccc1
- AID923: -3.4%
68. O=C(CC(=O)c1ccccc1O)c1cccc(F)c1
- AID923: 0.4%
60. COc1cc(/C=C/C(=O)O)cc(OC)c1OC
- AID923: -1.8%
66. Nc1ncnc2c1ncn2C1CC(O)C(CO)O1 (stereo not drawn)
- AID923: 0.0%&-1.1%

Next part:
71. COC(=O)c1cc(=O)c(O)c2c(O)c(O)ccc2c1
- AID923: 19%
72. Nc1nc(/C(=C/CC(=O)O)C(=O)NC2C(=O)N3C(C(=O)O)=CCSC23)cs1 (stereo not drawn)
- AID923: -0.8%
73. Clc1ccc(C2[C@H]3CN(Cc4cccnc4)[C@H](c4ccccc4)C34CC2(c2cccnc2)C4)cn1 (stereo partly drawn)
- AID923: 1.3%
74. COC(=O)c1cccc(C23CC4(C2)[C@H](CN(CC2CCCCC2)[C@@H]4c2ccccc2)C3c2ccc(C(F)(F)F)cc2)c1 (stereo partly drawn)
- AID923: -0.9%
75. Cc1nn(Cc2nc(-c3cccs3)no2)c(C)c1Br
- AID923: 1.5%
76. COC(=O)c1ccc(C2C(C(=O)OC(C)C)=C(C)N=C3SCCC(=O)N32)cc1 (stereo not drawn)
- AID923: 2.1%
77. Cc1ccccc1OCC(=O)Nc1cccc(NC(=O)c2ccco2)c1
- AID923: 1.9%
78. CCOC(=O)C(CCc1ccccc1)NC1CCc2ccccc2N(CC(=O)O)C1=O (stereo not drawn)
- AID923: 8.8%
79. Nc1ncn(C2OC(CO)C(O)C2O)c(=O)n1 (stereo not drawn)
- AID923: 0.0%
80. Cn1c(=O)cc(N)n(Cc2ccccc2)c1=O
- AID923: -1.6%
81. O=C(O)c1cc(=O)c2cccc(O)c2[nH]1
- AID923: -3.0%
82. COC(=O)CCC(C)C1CCC2C3CC[C@H]4CC(O)CC[C@@]4(C)C3CC(O)[C@]12C (stereo partly drawn)
- AID923: -1.1%
83. CC1CC[C@@]2(OC1)OC1CC3C4CC=C5CC(O)CC[C@@]5(C)C4CC[C@]3(C)C1C2C (stereo partly drawn)
- AID923: -0.5%
84. CCCCCCCCCCCCC(C(=O)O)C(C)C(=O)O (stereo not drawn)
- AID923: -2.9%
85. COC(=O)c1ccccc1NC(=O)Cn1cc2c(n1)CCC(C)C2 (stereo not drawn)
- AID923: -0.9%

86. C[C@@H]1CCC2[C@@H](C)[C@@H](O)O[C@@H]3O[C@@]4(C)CC[C@@H]1[C@@]23OO4 (stereo partly drawn)
- AID923: -0.8%
87. CC1CC[C@@]2(C(=O)O)CCC3(C)C(=CCC4[C@]5(C)CC(O)C(O)[C@](C)(CO)C5C(O)C[C@@]43C)C2C1C (stereo partly drawn)
- AID923: -1.7%
88. CCCCP(=O)(CCCC)c1ccccc1C(=O)O
- AID923: -4.2%
89. COc1ccc(NC(C)=O)c2nc(C)c(C)nc12
- AID923: -1.2%

Looked up above.
COc1ccc(NC(C)=O)c2nc(C)c(C)nc12 in AID923 shows -1.2%
C[C@@H]1CCC2[C@@H](C)[C@@H](O)O[C@@H]3O[C@@]4(C)CC[C@@H]1[C@@]23OO4 (stereo partly drawn) in AID923 shows -0.8%
CCCCP(=O)(CCCC)c1ccccc1C(=O)O in AID923 shows -4.2%
